T cruzi inh = inhibitors of intracellular T. cruzi growth, primary screen, luminescence, NIH3T3 host cells | 300,000 compounds, 1.4% hits | T. cruzi beta-gal in NIH3T3, 90 h | inhibition, % (no concentration beside the values) | AID 1885, 2009;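 active means mean inhibition across valid replicates above about 55%, limit read from the data; inconclusive means mean below that limit but half or more replicates reach it; inactive means mean below it, under half of replicates reach it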;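 further: signal also drops with host cell toxicity which is not excluded here; 0% = plate median of DMSO wells and 100% = zero luminescence signal; higher percent means less beta-gal luminescence so fewer parasites; stock transfer was 50 nL into about 50 µL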
Beta apoptosis = inhibitors of cytokine-induced beta cell apoptosis, primary screen, luminescence; INS-1E cytokine-induced death, ATP luminescence, 48 h; percent of positive-control rescue, neutral wells zero; protection from apoptosis, % (no concentration beside the values); 300,000 compounds, 0.8% hits; AID 435005, 2010;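 active means all replicates at 75% or more, or half of them and the mean; inconclusive means half reach 75% but not the mean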;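 further: 0% = cytokine-treated negative control wells and 100% = positive control rescue; higher means more ATP so stronger rescue from cytokine killing; wells of about 40 µL received 100 nL stock; the first replicate is given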
FGF22 binding = binders of human FGF22 protein, primary screen, FGF22 synaptogenesis inhibitor project, biophysical, thermal shift, single point. Fibroblast growth factor 22 (Homo sapiens), Q9HCT0. recombinant FGF22 thermal shift, SYPRO orange fluorescence; percent of sucrose octasulfate shift, DMSO zero. calls only at 9.99 µM. 340,000 compounds, 1.5% hits;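 active means melting point raised past a set limit in the mean and every replicate; inconclusive means no clear call; three in four hits are not shown here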
Target sequence (Q9HCT0 whole entry, looked up): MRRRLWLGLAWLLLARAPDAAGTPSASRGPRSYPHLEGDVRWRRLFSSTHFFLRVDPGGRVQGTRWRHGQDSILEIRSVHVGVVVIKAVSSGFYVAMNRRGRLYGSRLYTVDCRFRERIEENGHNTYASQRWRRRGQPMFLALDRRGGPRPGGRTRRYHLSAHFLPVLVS
UCH37 inh = inhibitors of human UCH37 deubiquitinase, primary screen, biochemical, Ub-AMC cleavage, fluorescence. 330,000 compounds, 0.33% hits. purified proteasome/UCH37. inhibition, % (test concentration not listed);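 active means mean of two replicates above 20%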;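 further: 0% = compound-free wells with enzyme and 100% = wells lacking proteasome; stock transfer was 100 nL into about 20 µL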
Target sequence (Q9Y5K5 whole entry, looked up): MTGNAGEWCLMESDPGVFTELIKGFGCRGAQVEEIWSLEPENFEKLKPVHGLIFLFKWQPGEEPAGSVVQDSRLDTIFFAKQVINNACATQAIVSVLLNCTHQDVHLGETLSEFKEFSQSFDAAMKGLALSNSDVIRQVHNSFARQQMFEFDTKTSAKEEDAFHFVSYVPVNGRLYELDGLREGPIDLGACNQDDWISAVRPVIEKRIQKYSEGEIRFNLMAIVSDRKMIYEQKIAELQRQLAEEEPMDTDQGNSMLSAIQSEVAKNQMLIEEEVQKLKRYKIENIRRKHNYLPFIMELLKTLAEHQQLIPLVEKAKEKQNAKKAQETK
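assay system = human UCH37 enzyme supplied as purified proteasome complex | amount = proteasome at 0.15 nM in the dispensed enzyme solution | schedule = 30 min compound-proteasome preincubation then 25 min substrate reaction, room temperature | measured by = fluorescence, ex 355 nm, em 460 nm | benchmarks = no-proteasome wells (full inhibition) and compound-free wells (no inhibition)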
MLL AF4-AF9 inh = inhibitors of AF4 peptide binding to AF9, primary screen, biochemical, AlphaScreen, biotin-AF4 peptide, FLAG-AF9, single point. 350,000 compounds, 0.47% hits. Protein AF-9 (Homo sapiens), P42568. inhibition, % at 10 µM;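 active means every replicate reaching a set inhibition limit, whatever the replicate mean, cut at about 25% in these data; inconclusive means mean inhibition reaches that limit but some replicates miss it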;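 further: 0% = plate neutral control median and 100% = total signal loss; the record names both 10 and 1 µM as test concentration; the first replicate is given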
Target sequence (P42568 whole entry, looked up): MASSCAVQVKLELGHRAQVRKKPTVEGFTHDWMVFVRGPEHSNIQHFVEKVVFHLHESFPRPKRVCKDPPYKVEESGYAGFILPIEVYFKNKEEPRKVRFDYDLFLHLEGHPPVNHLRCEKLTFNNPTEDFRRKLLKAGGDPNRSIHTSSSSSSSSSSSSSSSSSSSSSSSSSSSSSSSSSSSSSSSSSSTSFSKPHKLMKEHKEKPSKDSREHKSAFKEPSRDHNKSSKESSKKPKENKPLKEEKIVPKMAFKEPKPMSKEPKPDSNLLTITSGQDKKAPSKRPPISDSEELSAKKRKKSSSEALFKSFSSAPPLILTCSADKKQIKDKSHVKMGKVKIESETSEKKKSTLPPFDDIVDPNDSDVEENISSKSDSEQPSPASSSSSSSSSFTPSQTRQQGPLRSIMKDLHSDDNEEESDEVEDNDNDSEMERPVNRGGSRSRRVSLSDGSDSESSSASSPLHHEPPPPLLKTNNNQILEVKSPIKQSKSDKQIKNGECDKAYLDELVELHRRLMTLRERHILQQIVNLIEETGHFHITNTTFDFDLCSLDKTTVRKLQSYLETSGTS
Bfl-1 A1 inh = caspase 3/7 activation in MEF A1-2A-BIM cells, primary screen, A1 inhibitor project, cell-based, luminescence, HTS; Caspase-Glo 3/7 luminescence, 3 h; percent of clofoctol response, vehicle zero; caspase activation, % (test concentration not listed); 330,000 compounds, 0.066% hits;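 active means over half of replicate activation scores above 10%, or exactly half above 10 with the replicate mean above 10; inconclusive means replicate mean below 10 yet half the replicates above 10; inactive means over half of replicates below 10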;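 further: wells of about 30 µL received 50 nL stock; many hits fall short of the cut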
Ecoli growth = E. coli growth inhibition, primary screen, OD600; 330,000 compounds, 0.21% hits; OD600 absorbance (no concentration beside the values); Escherichia coli growth, 23 h; active compounds read low;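 active means OD600 absorbance below the run mean of sample wells minus 3.6 SD, in any replicate, cut at about 0.56 in these data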;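 further: stock transfer was 300 nL into about 60 µL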
rRNA inh HTS = reduced GFP signal of wild-type E. coli, primary screen, bacterial rRNA inhibitor project, GFP/RFP fluorescence, OD600, single point. E. coli WT GFP vs humanized-ribosome RFP mutants, 24 h; active compounds read low; DMSO median 0, no signal -100. GFP signal change (wild-type ribosome), % (test concentration not listed). 350,000 compounds, 1.6% hits;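 active means significant combined selectivity score with lowered wild-type GFP, culture density cut under 30%, mutant RFP and density less affected; inactive means any of these conditions unmet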; further: one replicate is shown; some compounds called inactive have numbers as strong as hits
rRNA inh HTS OD600 = second read-out of rRNA inh HTS, no call of its own (marks repeat the call); OD600 change, %; measured here: OD600 growth;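 optical density of the mix in the first replicate; 0 = DMSO median and -100 = no signal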
rRNA inh HTS RFP = second read-out of rRNA inh HTS, no call of its own (marks repeat the call); RFP signal change, %; measured here: RFP humanized mutant strains;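 first replicate; 0 = DMSO median and -100 = no signal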
An asterisk follows results filed as active; i = inactive; ? = inconclusive; / = not tested or not shown. Only part of the results is shown. The share of hits here may be higher or lower than overall.

SMILES	T cruzi inh	Beta apoptosis	FGF22 binding	UCH37 inh	MLL AF4-AF9 inh	Bfl-1 A1 inh	Ecoli growth	rRNA inh HTS	rRNA inh HTS OD600	rRNA inh HTS RFP
CCOc1ccc(S(=O)(=O)N(CC(=O)NCc2ccncc2)c2ccc(C)cc2)cc1	-2	3	i	-0.5	7.7	-0.4	0.66	-6	-9	-1.1
CCCCCCC1(C)NC(=O)N(C(C)C(=O)Nc2ccc(N3CCOCC3)cc2)C1=O (centres undefined)	/	0	i	-2.4	-7.1	0.2	0.66	9	10	1.3
Cc1cc(-c2ccccc2)nc2oc3c(c12)NC(=O)CN(c1ccccc1)C3=O	19	/	i	-3.4	-1.9	-1.0	0.65	18	8	0.1
CN(Cc1ccccc1)C(=O)c1cccc(NC(=O)c2ccco2)c1	-1	2	/	3.5	/	-0.2	0.68	/	/	/
COc1ccc2c(c1)c(C(C)=O)c(C)n2-c1ccc(C(C)=O)cc1	1	/	i	0.1	0.1	/	0.67	5	3	-0.6
COc1ccc(C(=O)N2CCC(C(=O)Nc3ccc(OC)c(OC)c3)CC2)cc1	-21	9	/	-2.3	/	0.7	0.69	/	/	/
Cc1ccc(NC(=O)CSc2nnc(-c3ccncc3)n2N)cc1C	1	2	/	4.5	/	-0.5	0.65	/	/	/
O=C1C=CC(=Nc2ccc3c(c2)C(=O)c2ccccc2-3)O1	/	/	i	8.8	-0.6	/	0.66	-16	-3	-6.0
CCCCn1c(N)c(N(CCC(C)C)C(=O)c2ccc3c(c2)OCCO3)c(=O)[nH]c1=O	-14	2	i	0.7	-1.1	1.1	0.7	5	8	-2.1
O=C(/C=C/c1ccncc1)c1ccc(NC(=O)c2ccccc2F)cc1	/	-1	/	5.8	/	-1.4	0.66	/	/	/
CC(=O)Nc1ccc(CN2CCN(CCc3ccccc3)C(CCO)C2)cc1 (centres undefined)	8	-6	i	1.6	-3.5	0.8	0.71	18	5	3.1
COc1ccc(N(C)C(=O)C2CCCN2S(=O)(=O)c2cccc3nsnc23)c(OC)c1 (centres undefined)	4	-8	/	5.0	/	1.6	0.69	/	/	/
O=C(N=Nc1c(O)n(Cc2ccccc2)c2ccccc12)c1cc2ccccc2cc1O	1	84*	i	14	-1.2	-4.7	0.69	11	6	-6.1
CCN(CC)CCN(Cc1cc2cc(C)ccc2[nH]c1=O)C(=S)NCc1ccco1	3	-2	i	-2.5	7.3	1.3	0.63	12	5	-6.6
O=C(/C=C/c1cccs1)Nc1ccc(Br)cn1	-51	20	/	-4.7	/	-3.3	0.69	/	/	/
COc1ccc(C(=O)NCCCNC(=O)c2ccco2)cc1OC	10	-3	i	-0.5	-4.1	0.0	0.67	0	3	1.3
O=C(CCC(=O)N1CCSc2ccccc21)NCc1cccc(Br)c1	9	-2	i	2.5	-0.5	0.0	0.69	-24	-42	4.5
Cc1cccc(N2CCN(C(=O)c3c(Cl)cnn3C)CC2)c1C	4	-5	i	0.6	0.7	0.8	0.72	-22	-26	-5.9
c1ccc(-c2nnc(CSc3nnc(-c4ccncc4)n3Cc3ccco3)o2)cc1	-6	2	/	0.9	/	-0.5	0.7	/	/	/
Cn1c(CNC(=O)c2ccccc2F)nnc1SCC(=O)NCc1ccccc1	0	-4	i	3.6	-2.3	-0.4	0.62	22	18	0.2
O=C(Cn1ncc2c3ccccc3n(Cc3cccc(Cl)c3)c2c1=O)NCc1ccccn1	6	-5	i	-1.0	1.2	0.2	0.72	-1	2	-11
COc1ccc2cc(CCNC(=O)c3ccc(S(=O)(=O)N4CCOCC4)cc3)c(=O)[nH]c2c1	18	-6	i	5.1	-0.9	-0.1	0.69	5	3	3.6
COc1cccc(CN(C)C(c2ccccc2)c2ccccc2)c1OC	0	-4	i	2.8	-1.5	0.6	0.71	-10	-18	-5.7
COCCN(CCOC)C(=O)CSc1ccc(S(=O)(=O)N2CCN(C)CC2)cn1	/	-3	i	-1.2	17	-0.3	0.68	10	16	1.0
O=C(NCCc1ccc(Cl)cc1)c1ccc2ccccc2n1	-12	-3	i	0.3	-1.7	1.0	0.66	-7	-13	2.6
(further entries)
SMILES	T cruzi inh	Beta apoptosis	FGF22 binding	UCH37 inh	MLL AF4-AF9 inh	Bfl-1 A1 inh	Ecoli growth	rRNA inh HTS	rRNA inh HTS OD600	rRNA inh HTS RFP
COc1ccc(NC(=O)c2c(C(F)(F)F)nn(C)c2SCc2ccccc2Cl)cc1	15	0	/	5.7	/	-0.2	0.69	/	/	/
O=C(NCCOc1ccccc1)c1n[nH]c(=O)c2ccccc12	5	-6	/	1.8	/	0.8	0.74	/	/	/
CC(=O)N1CCN(C(=O)c2ccc(-c3ccccc3Cl)o2)CC1	/	-4	i	1.6	0.1	0.8	0.64	-8	-11	-3.4
Cc1nc2ccccc2c(=O)n1/N=C/c1cccs1	0	1	i	/	3.7	-2.0	/	-19*	0.1*	-1.5*
CCOC(=O)/C=C/C(=O)OCC(=O)Nc1ccc(OC)c(Cl)c1	-28	-9	i	1.0	-1.8	?	0.66	/	/	/
COc1ccc(C(=O)N[C@H](C(=O)Nc2nc3c(s2)CCCC3)C(C)C)cc1	6	-6	/	5.3	/	0.3	0.67	/	/	/
Cc1ccccc1OCC(=O)OCC(=O)c1ccc(OCc2ccccc2)cc1	-10	1	/	3.4	/	-1.1	0.71	/	/	/
NC(=O)C1CCN(C(=O)CSc2nc(O)cc(=O)[nH]2)CC1	-6	-1	i	/	-5.9	0.3	/	-12	-10	-1.5
O=C(Nc1ccccc1Br)C1CCCN1S(=O)(=O)c1cccc2nsnc12 (centres undefined)	-4	/	i	1.6	8.9	/	0.7	-8	-15	2.5
Cc1cc(=O)oc2cc(OCC(=O)OC(C)C(=O)NC3CCCC3)ccc12 (centres undefined)	-13	-2	/	-25	-2.7	0.7	0.69	4	1	-1.2
CC[C@H](C)[C@@H](C(=O)NCCCCCCCCCCC(=O)N1CCNCC1)n1cc(CCCCCN)nn1	/	-6	i	0.4	6.3	0.4	/	0	-7	30
C/C=C(/C)C(=O)Nc1cccc(C2=NOC3(C2)C[C@@H](C(N)=O)N(C(=O)[C@H]2CCC(=O)N2)C3)c1 (some centres undefined)	-25	-3	i	2.9	2.5	0.4	/	9	20	7.1
N#Cc1ccc(Oc2ccc(C(N)=O)cc2)cc1C#N	-1	-6	/	0.3	/	0.4	0.68	/	/	/
COc1ccc(N(CC(=O)NC2CCCCC2)C(=O)c2ccc(C)s2)c(OC)c1	19	1	i	-0.5	1.5	0.5	0.61	-9	-10	6.9
CS(=O)(=O)N1CCC(C(=O)NCc2ccco2)CC1	-14	3	/	2.0	/	0.7	0.7	/	/	/
CCc1nc(N)nc2c1C(=O)CC(C)(C)C2	-26	3	/	-0.1	-10	0.3	0.64	6	-1	-6.2
O=C(c1cc2ccccc2oc1=O)N(Cc1ccc2c(c1)OCO2)Cc1ccco1	12	-1	/	1.3	/	1.1	0.67	/	/	/
CCn1c(C)nc2cc(C(=O)NNS(=O)(=O)c3c(C)c(C)cc(C)c3C)ccc21	-15	0	/	4.2	/	0.1	0.7	/	/	/
CCCCCCOC(=O)C(C#N)c1nc2ccccc2nc1N1CCCCC1 (centres undefined)	37	13	/	1.1	/	0.1	0.66	/	/	/
CC(=O)Nc1ccc2nc(NC(=O)CN3CCOCC3)sc2c1	-2	0	i	2.2	-3.2	0.3	0.67	11	16	1.9
COc1ccc(CCNC(=O)CSc2ccccc2)cc1OC	-3	2	i	2.2	2.3	-0.1	0.71	-7	-6	-1.1
Cc1cc(C)nc(NC(=O)c2cc(-c3ccc(C)s3)nc3ccccc23)c1	-10	10	/	-221	/	0.1	0.7	/	/	/
CCCCNc1nnc(SCC(=O)c2c[nH]c3ccccc23)s1	10	0	/	0.9	/	0.1	0.64	/	/	/
Cc1ccc(S(=O)(=O)Nc2ccc3cc([N+](=O)[O-])ccc3c2[N+](=O)[O-])cc1	/	/	/	10	0.1	/	0.65	-8	-56	-8.1
COCCCNC(=O)C1=CCN(S(=O)(=O)c2ccc(OC)cc2)CC1	-33	-9	i	0.8	0.5	?	0.67	6	1	0.6
Carrying on.
SMILES	T cruzi inh	Beta apoptosis	FGF22 binding	UCH37 inh	MLL AF4-AF9 inh	Bfl-1 A1 inh	Ecoli growth	rRNA inh HTS	rRNA inh HTS OD600	rRNA inh HTS RFP
O=C(Nc1nc2ccccc2[nH]1)C1CC1	-5	/	i	3.8	-0.7	-2.6	0.68	7	2	3.0
CNC(=S)Nc1ccc(C)c(NC(=S)NC)c1	-20	-5	i	0.6	-4.1	-0.7	0.71	16	3	-3.3
CC1(C)SC2C(C(=O)O)N=C(Cc3ccccc3)N2C1C(=O)O (centres undefined)	/	/	i	4.9	-5.9	/	0.72	8	16	-3.6
CCOC(=O)[C@@H]1[C@H]2COc3ccccc3[C@@H]2N2C(=O)N(c3ccc(C(F)(F)F)cc3)C(=O)[C@@]12C	/	-3	i	-0.6	/	1.4	/	8	7	-1.4
COc1ccc(COc2cc(-c3cccc(OC)c3)nc3ccc(NC(=O)c4ccc(OC)cc4)cc23)cc1	3	25	i	-7.1	1.0	-0.2	0.77	9	19	3.6
CCCNS(=O)(=O)c1cccc(C(=O)OCc2cc(=O)oc3cc(OC)ccc23)c1	8	21	i	-72	-1.4	0.8	0.68	-21	-22	3.4
O=C(CCN1C(=O)/C(=C/c2ccccc2)SC1=S)Nc1ccccn1	-14	0	i	5.6	1.6	-0.3	0.69	-2	4	-2.0
COc1cc(NC(=O)CSc2nncn2C)cc(OC)c1OC	-6	-1	i	-3.8	-0.5	-0.2	0.68	15	16	1.7
CC(=O)Nc1ccc(S(=O)(=O)NCc2ccc(C(=O)NCCCN3CCC(C)CC3)cc2)cc1	-4	-7	i	1.1	-3.5	-0.9	0.63	5	10	-2.8
Cc1nc(Nc2ccccc2Br)c2nnn(Cc3ccccc3)c2n1	19	0	i	-2.4	3.4	-0.5	0.71	7	16	0.1
N#CC1=C(N)SC(N)=C(C#N)C1c1ccc([N+](=O)[O-])cc1	5	-1	/	4.7	-12	0.3	0.69	-5	3	-1.9
CC1CCC(NC(=O)c2ccc(-n3cncn3)c([N+](=O)[O-])c2)CC1 (centres undefined)	9	-6	i	0.9	0.5	0.1	0.69	8	4	-2.7
CCN(CC)Cc1csc2ccc(Br)cc12	1	-7	/	0.3	/	-0.8	0.7	/	/	/

High-throughput results (PubChem)
